MrgX1 PAM – human MrgX1 positive allosteric modulation, primary screen; Q96LB2; MrgX1-HEK293, Fluo-4 calcium flux, FDSS; hits give high values; B-score at 10 µM; hit rate 0.63% among 310,000;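 active means plate-corrected calcium response at least 3 library SD above typical, normal starting fluorescence, not activating the receptor alone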;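 further: compound read alongside a low EC10 to EC30 dose of BAM8-22 agonist; peak minus trough fluorescence over baseline measured at the second addition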
TMEM16A inh – blocks the mouse calcium-activated chloride channel TMEM16A. Q8BHY3. HEK293 TMEM16A/YFP iodide influx fluorescence, ionomycin. normalized B-score (activity score, 25-100; higher = stronger inhibition) at 10 µM. hit rate 1.2% among 310,000. AID 588511;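 active means ratio plate-corrected score three or more library SD toward inhibition, starting fluorescence score within five deviations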;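 further: score derived from kinetic fluorescence span divided by baseline fluorescence per well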
MrgX1 ag – human MrgX1 receptor agonism, primary screen; hit rate 0.44% among 310,000; MrgX1-HEK293 cells, Fluo-4 calcium fluorescence, agonist mode; hits give high values; Q96LB2; B-score at 10 µM; AID 588627;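 active means calcium response B-score plate-corrected fluorescence ratio at least 3 library SD, with starting fluorescence B-score inside 5 SD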
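times = overnight plating, then 30 min 37 °C plus 30 min room-temperature dye loading | assay system = stable human MrgX1 HEK293 cell line | input = fifteen thousand cells per well | signal = kinetic calcium dye fluorescence, Fluo-4 NW | dosing = compound delivered in addition one of three | read-out = B-scored fluorescence response ratio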
TMEM16A act – mouse TMEM16A channel activation, primary screen; B-score at 10 µM; hit rate 0.3% among 340,000; HEK293 TMEM16A/YFP-H148Q/I152L, iodide quench fluorescence; hits give low values; Q8BHY3;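 active means fluorescence-ratio B-score plate-corrected deviation score at least 3 library SD below zero, with starting fluorescence score within 5 deviations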;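 further: channel opened by trigger with iodide after compound preincubation; score built on the fluorescence ratio of max minus min over baseline; more negative score means more quench and so TMEM16A activation or potentiation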
hERG protect – compounds protecting human hERG from proarrhythmic drug block | Q12809 | CHO-hERG, FluxOR thallium flux, dofetilide IC70 present | activation (rescue from dofetilide block), less the hit threshold, % at 10 µM | hit rate 0.51% among 310,000;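 active means activation above the mean of controls blocked by dofetilide plus 5 SD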;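 further: thallium influx through hERG after potassium depolarization seen as dye fluorescence rise; in these data hits start at about 4.7%; inactives centre near -7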
KCNQ1 act – human KCNQ1 channel potentiation or activation; P51787; CHO-K1 KCNQ1, thallium flux FluxOR fluorescence; hits give high values; B-score at 10 µM; hit rate 0.35% among 310,000;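 active means fluorescence ratio B-score, a plate-corrected score, at least three library SD, with initial intensity B-score within 5 SD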
Target sequence (P51787 whole entry, looked up): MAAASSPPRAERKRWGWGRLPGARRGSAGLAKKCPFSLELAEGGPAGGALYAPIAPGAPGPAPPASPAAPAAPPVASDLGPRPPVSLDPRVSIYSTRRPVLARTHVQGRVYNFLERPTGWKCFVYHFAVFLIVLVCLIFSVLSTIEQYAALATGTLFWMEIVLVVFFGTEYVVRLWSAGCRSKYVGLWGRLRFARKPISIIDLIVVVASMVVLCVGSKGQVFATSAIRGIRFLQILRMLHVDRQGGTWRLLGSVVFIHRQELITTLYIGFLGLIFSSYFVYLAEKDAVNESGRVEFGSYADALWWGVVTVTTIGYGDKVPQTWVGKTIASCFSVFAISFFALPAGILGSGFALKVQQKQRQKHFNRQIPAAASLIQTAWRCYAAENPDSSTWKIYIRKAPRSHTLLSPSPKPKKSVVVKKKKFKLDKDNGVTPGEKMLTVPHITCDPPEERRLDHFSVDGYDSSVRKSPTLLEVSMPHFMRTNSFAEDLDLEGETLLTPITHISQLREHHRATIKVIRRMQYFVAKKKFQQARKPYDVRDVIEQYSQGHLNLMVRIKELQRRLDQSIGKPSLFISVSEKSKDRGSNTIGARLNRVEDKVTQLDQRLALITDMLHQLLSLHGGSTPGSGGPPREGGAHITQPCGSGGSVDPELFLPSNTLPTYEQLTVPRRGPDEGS
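Schedule – 37 °C overnight plating, 90-min dark dye load, 20-min compound pretreatment · System – stable KCNQ1 CHO-K1 line · Probe or stimulus – thallium- and potassium-containing depolarizing buffer · Measured by – kinetic FluxOR fluorescence, 10 s baseline plus 110 s post-stimulus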
Starred values were filed as active, the others as inactive; & = joins results of further samples; ! = not active in a repeat. The list is partial, so the mix of outcomes need not match the whole.

`Cc1nnc(SCC2=C(C(=O)O)N3C(=O)[C@@H](NC(=O)Cn4cnnn4)[C@H]3SC2)s1` gave MrgX1 PAM inactive, TMEM16A inh 100*!, MrgX1 ag inactive, TMEM16A act inactive, hERG protect -6&-4 and KCNQ1 act inactive.
For Cc1sc2ncnc(SCC(=O)N3CCN(C(=O)c4ccco4)CC3)c2c1C the results were MrgX1 PAM inactive, TMEM16A inh inactive, MrgX1 ag inactive, TMEM16A act inactive, hERG protect -2 and KCNQ1 act inactive.
`NC(CO)C(=O)NNCc1ccc(O)c(O)c1O` (centres undefined) gave MrgX1 PAM inactive, TMEM16A inh inactive, MrgX1 ag inactive, TMEM16A act inactive, hERG protect -3 and KCNQ1 act inactive.
CCc1nc(NCc2ccc3c(c2)OCO3)c2oc3ccccc3c2n1 was read as MrgX1 PAM inactive, TMEM16A inh inactive, MrgX1 ag inactive, TMEM16A act inactive, hERG protect -16 and KCNQ1 act inactive.
Screening COc1ccc(C)cc1-n1nnnc1SCc1nc2ccccc2s1 returned MrgX1 PAM inactive, TMEM16A inh inactive, MrgX1 ag inactive, TMEM16A act inactive, hERG protect -12 and KCNQ1 act inactive.
For COc1ccc(-c2ccoc2)cc1[C@H]1[C@H]2C=CC[C@@H](C)[C@@H]2C(=O)N1Cc1ccccc1 the results were MrgX1 PAM inactive, TMEM16A inh inactive, MrgX1 ag inactive, TMEM16A act inactive, hERG protect -35 and KCNQ1 act inactive.
Screening CCCCN1CCCCC1C(=O)Nc1c(C)cccc1C (centres undefined) returned MrgX1 PAM inactive, TMEM16A inh inactive, MrgX1 ag inactive and TMEM16A act inactive.
O=C(Nc1cccc(NC(=O)c2ccc(Br)o2)c1)c1ccccc1 was read as TMEM16A act inactive, hERG protect -9 and KCNQ1 act inactive.
Screening CCN(c1ccccc1)S(=O)(=O)c1cc(C(=O)Nc2cccc(Cl)c2)ccc1F returned MrgX1 PAM inactive, TMEM16A inh 100*, MrgX1 ag inactive, TMEM16A act inactive, hERG protect 0 and KCNQ1 act inactive.
Screening CC1=C(CC(=O)O)c2cc(F)ccc2/C1=C/c1ccc(S(C)=O)cc1 (centres undefined) returned MrgX1 PAM inactive, TMEM16A inh inactive, MrgX1 ag inactive, TMEM16A act inactive, hERG protect -13 and KCNQ1 act inactive.
Screening CC1(C)O[C@@H]2C[C@H]3[C@@H]4C[C@H](F)C5=CC(=O)C=C[C@]5(C)[C@H]4[C@@H](O)C[C@]3(C)[C@]2(C(=O)CO)O1 returned MrgX1 PAM inactive, TMEM16A inh inactive, MrgX1 ag inactive and TMEM16A act inactive.
For OC(CCN1CCCCC1)(c1ccccc1)C1C[C@@H]2C=C[C@H]1C2 (some centres undefined) the results were MrgX1 PAM 6.5*, TMEM16A inh inactive, MrgX1 ag inactive and TMEM16A act inactive.

Two compounds picked at random from the list so far, as already listed:
Screening CC1=C(CC(=O)O)c2cc(F)ccc2/C1=C/c1ccc(S(C)=O)cc1 (centres undefined) returned MrgX1 PAM inactive, TMEM16A inh inactive, MrgX1 ag inactive, TMEM16A act inactive, hERG protect -13 and KCNQ1 act inactive.
CCc1nc(NCc2ccc3c(c2)OCO3)c2oc3ccccc3c2n1 was read as MrgX1 PAM inactive, TMEM16A inh inactive, MrgX1 ag inactive, TMEM16A act inactive, hERG protect -16 and KCNQ1 act inactive.

(listing goes on)
N#Cc1c(NC(=O)CCn2cnc3ccccc3c2=O)oc(-c2ccccc2)c1-c1ccccc1 was read as MrgX1 PAM inactive, TMEM16A inh inactive, MrgX1 ag inactive, TMEM16A act inactive, hERG protect -17 and KCNQ1 act inactive.
For CCCC(=O)Nc1ccc(Cl)c(-c2nc3ncccc3o2)c1 the results were MrgX1 PAM inactive, TMEM16A inh inactive, MrgX1 ag inactive, TMEM16A act inactive, hERG protect -9 and KCNQ1 act inactive.
`Nc1nc(=S)c2[nH]cnc2[nH]1` gave MrgX1 PAM inactive, TMEM16A inh inactive, MrgX1 ag inactive and TMEM16A act inactive.
CCC(Oc1ccccc1)C(=O)Nc1cc(C(F)(F)F)ccc1N1CCOCC1 (centres undefined) was read as MrgX1 PAM inactive, TMEM16A inh inactive, MrgX1 ag inactive, TMEM16A act inactive, hERG protect -7 and KCNQ1 act inactive.
Screening CSc1ccc(Cl)c(C(=O)NCCOc2cc(C)ccc2C(C)C)c1 returned MrgX1 PAM inactive, TMEM16A inh inactive, MrgX1 ag inactive, TMEM16A act inactive, hERG protect -5 and KCNQ1 act inactive.
`O=C1N=C(O)CN1/N=C/c1ccc(-c2ccc([N+](=O)[O-])cc2)o1` gave MrgX1 PAM inactive, TMEM16A inh inactive, MrgX1 ag inactive, TMEM16A act inactive, hERG protect -4 and KCNQ1 act inactive.
For COc1ccccc1-c1cc(C(=O)N/N=C/c2sccc2C)c2ccccc2n1 the results were MrgX1 PAM inactive, TMEM16A inh inactive, MrgX1 ag inactive, TMEM16A act inactive, hERG protect -6 and KCNQ1 act inactive.

In the list so far, these have a thiophene ring, fused or not.
For Cc1sc2ncnc(SCC(=O)N3CCN(C(=O)c4ccco4)CC3)c2c1C the results were MrgX1 PAM inactive, TMEM16A inh inactive, MrgX1 ag inactive, TMEM16A act inactive, hERG protect -2 and KCNQ1 act inactive.
For COc1ccccc1-c1cc(C(=O)N/N=C/c2sccc2C)c2ccccc2n1 the results were MrgX1 PAM inactive, TMEM16A inh inactive, MrgX1 ag inactive, TMEM16A act inactive, hERG protect -6 and KCNQ1 act inactive.

Compound activity from PubChem BioAssay.
